High-throughput results deposited in PubChem by several laboratories.
MT1-MMP act inh: blockers of MT1-MMP proenzyme processing, primary screen, HT1080 RFP-PRO-GFP cells, GFP/RFP fluorescence; GFP/RFP ratio fluorescence, overnight; percent of plate control window, DMSO zero; Matrix metalloproteinase-14 (Homo sapiens), P50281; GFP/RFP ratio change, % at 20 µM; actives 0.061% (n = 360,000);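 active means GFP/RFP ratio change of at least 30% with cell ATP level not reduced by more than half and red fluorescence within 50% of control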; further: strong numbers were not always called active
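Compound: 20 µM single dose, 1% DMSO / System: HT1080 RFP-PRO-GFP cells / Controls: DMSO and RFP-L50D-GFP cell wells / Read-out basis: GFP/RFP fluorescence ratio / Schedule: overnight compound exposure at 37 °C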
Rce1 inh: yeast Rce1p protease inhibitors, primary screen, biochemical, fluorescence, cell-free homogeneous | CAAX prenyl protease 2 (Saccharomyces cerevisiae (strain ATCC 204508 / S288c)), Q03530 | yeast membranes, quenched prenylated peptide cleavage fluorescence | calls only | actives 0.27% (n = 290,000) | AID 2563, 2010;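 active means fall in fluorescence gain of 50% or more versus controls, with final raw signal at or below 3038400; inconclusive means same 50% fall but final raw signal above 3038400; inactive means fall in fluorescence gain under 50%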;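 further: plate controls were neutral control wells for no effect and wells lacking membranes for full effect; tested at 10 µM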
Target sequence (Q03530 whole entry, looked up): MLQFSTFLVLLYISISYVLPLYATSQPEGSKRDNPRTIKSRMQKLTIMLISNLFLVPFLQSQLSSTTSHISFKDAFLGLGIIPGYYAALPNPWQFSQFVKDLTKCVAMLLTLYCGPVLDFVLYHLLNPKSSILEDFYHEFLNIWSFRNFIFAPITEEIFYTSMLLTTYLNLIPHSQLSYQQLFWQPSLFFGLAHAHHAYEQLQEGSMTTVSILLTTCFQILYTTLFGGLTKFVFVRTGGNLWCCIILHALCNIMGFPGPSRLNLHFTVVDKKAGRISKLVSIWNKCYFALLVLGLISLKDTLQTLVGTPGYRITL
PABP FP inh: PABP poly(A) RNA binding inhibitors, primary screen, biochemical, fluorescence polarization, uHTS | Polyadenylate-binding protein 1 (Homo sapiens), P11940 | inhibition, % at 35 µM | actives 1% (n = 290,000) | AID 2014, 2009;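 active means 50% or more with normal probe brightness, or confirmed in later tests; inconclusive means above 50% with abnormal brightness, or retests that disagree; inactive means below 50% or failed in later tests; about a fifth of its hits are not listed in these tables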;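 further: calls also rest on retests at 20 µM and on dose response follow-up; controls were probe without protein and protein plus probe with vehicle; some compounds called inactive have numbers as strong as hits; many hits fall short of the cut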
Target sequence (P11940 whole entry, looked up): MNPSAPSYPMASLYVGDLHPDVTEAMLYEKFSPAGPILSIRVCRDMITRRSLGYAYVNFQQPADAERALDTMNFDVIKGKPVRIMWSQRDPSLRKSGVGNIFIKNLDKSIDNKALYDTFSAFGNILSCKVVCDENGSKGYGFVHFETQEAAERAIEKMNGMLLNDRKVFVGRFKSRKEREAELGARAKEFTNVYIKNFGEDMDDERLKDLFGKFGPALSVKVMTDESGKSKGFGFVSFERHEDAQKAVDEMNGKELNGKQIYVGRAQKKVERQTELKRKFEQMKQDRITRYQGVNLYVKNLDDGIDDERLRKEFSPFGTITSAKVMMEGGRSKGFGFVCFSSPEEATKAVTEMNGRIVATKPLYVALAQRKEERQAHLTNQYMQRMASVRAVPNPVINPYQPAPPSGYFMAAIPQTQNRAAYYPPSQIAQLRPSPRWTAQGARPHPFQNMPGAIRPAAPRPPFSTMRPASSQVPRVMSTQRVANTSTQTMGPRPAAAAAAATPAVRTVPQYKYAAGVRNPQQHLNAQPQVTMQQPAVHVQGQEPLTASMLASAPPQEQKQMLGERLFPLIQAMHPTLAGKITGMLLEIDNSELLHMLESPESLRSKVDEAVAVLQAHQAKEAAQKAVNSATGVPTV
Env fusion inh: inhibitors of HIV-1 Env-driven cell-cell fusion, primary screen, HeLa-JRFL effector, CEM21 target cells, luciferase | inhibition, % at 12.3 µM | actives 1.1% (n = 360,000) | AID 651610, 2012;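 active means mean replicate inhibition score of at least 50 and every replicate individually at or above 50; inconclusive means only one of the two criteria met; inactive means mean below 50 and not all replicates reaching 50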;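 further: 0% = plate neutral controls and 100% = maraviroc near 300 nM; one replicate is shown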
CSC inhib: cancer stem cell viability inhibitors, primary screen, luminescence | cancer stem cell-like cells viability | inhibition, % at 7.5 µM | actives 1.1% (n = 300,000) | AID 2717, 2010;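 active means mean at 75% or more and at least half the replicates too; inconclusive means mean and replicates disagree; tested in HMLE shEcad cells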;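 further: 0% = median of negative and 100% = median of positive control wells; the first replicate is given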
eIF4H inh: human eIF4H binding inhibitors, primary screen, translation initiation inhibitor project, biochemical, uHTS, fluorescence polarization | Eukaryotic translation initiation factor 4H (Homo sapiens), Q15056 | eIF4H fluorescence polarization binding assay | inhibition, % at 35 µM | actives 0.94% (n = 290,000);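 active means 50% or more with normal probe brightness, or confirmed in later tests; inconclusive means above 50% with abnormal brightness, or retests that disagree; inactive means below 50% or failed in later tests; about a fifth of its hits are not listed in these tables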;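 further: calls also rest on retests at 20 µM and on dose response follow-up; 0% = protein and probe with vehicle and 100% = probe without protein; strong numbers were not always called active; many hits fall short of the cut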
UUG fidelity: modulators of yeast start codon fidelity, primary screen, whole organism, S. cerevisiae, single point, plate reader; activity score, % at 18.7 µM; AID 602363, 2012; actives 0.13% (n = 350,000); S. cerevisiae UUG-firefly luciferase reporter, luminescence/redox ratio;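 active means replicate mean at a twofold rise or more, about +100% in these data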;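 further: firefly luciferase made from a UUG start codon reports start codon fidelity; reporter light over untreated wells divided by growth signal over untreated wells; some hits fall short of that in this replicate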
eIF4H inh retest: also measured in eIF4H inh; calls as there; inhibition, %; compound at 20 µM; confirmation average;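 mean of two retest wells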
PABP FP inh retest: recorded beside PABP FP inh, whose call it bears; inhibition, %; compound at 20 µM; confirmation repeats;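 mean of two retest wells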
MT1-MMP act inh RFP: also measured in MT1-MMP act inh; calls as there; RFP signal change, %; measured here: RFP expression control read;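 0 = vehicle wells; hits needed this value within 50% of zero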
Active calls of the source: *; i = inactive; ? = inconclusive; nt = no result given; & = joins results of further samples. Not all compounds are listed. The share of hits here may be higher or lower than overall.

SMILES	MT1-MMP act inh	MT1-MMP act inh RFP	Rce1 inh	PABP FP inh	Env fusion inh	CSC inhib	eIF4H inh	UUG fidelity	others
C/C(=N\NC(=O)c1nnn(-c2nonc2N)c1C(C)C)c1ccc2ccccc2c1	2	-1	i	8	-7	-14	-2	7
COc1ccc(Cl)cc1NC(=O)CN(C)C(=O)C12CC3CC(CC(Cl)(C3)C1)C2	4	-4	i	-10	nt	-8	-7	-10
CC1Sc2ccc(C(=O)Nc3cc(S(C)(=O)=O)ccc3Cl)cc2NC1=O (centres undefined)	2	-8	nt	nt	0	nt	nt	-2
CCC1CCCCN1CCNC(=O)C1CCN(S(=O)(=O)c2c(C)noc2C)CC1 (centres undefined)	-3	2	i	-4	-7	-15	6	-7
Cc1cc(C(=O)N2CCC2(C)C(=O)Nc2cccc3c2CCCC3)nn1C (centres undefined)	2	1	nt	nt	7	nt	nt	1
COc1ccc(C(=O)Nc2c(N)nc(SCC(=O)Nc3ccc(NC(C)=O)cc3)[nH]c2=O)cc1OC	-1	4	i	6	-1	-9	56	-15	eIF4H inh retest=24;PABP FP inh retest=26
S=c1nc(Cc2ccccc2)[nH]c2ccccc12	-5	-3	i	4	10	nt	10	-11
COc1ccc(N=CC=C2OC(C)(C)C(C)(C)O2)cc1OC	5	7	i	4	5	1	1	-26
CCOC(=O)N1CCN(c2c(NCCc3ccc(OC)c(OC)c3)c(=O)c2=O)CC1	-3	-3	i	-1	-8	-3	5	-11
CC1=N/C(=C\c2ccc3c(c2)OCO3)C(=O)N1c1ccc(C(=O)O)cc1	-2	4	i	17	22	5	-2	-9
CCOC(=O)[C@H]1[C@H]2COc3ccccc3[C@@H]2N2C(=O)[C@@H](C)NC(=O)[C@@]12C	0	2	nt	nt	-10	-1	nt	-8
COc1ccc(N2C(=O)[C@@H]3[C@H](C2=O)[C@H]2C=CC=NN2[C@@H]3C(=O)Nc2ccc(Cl)cc2)cc1	-2	3	i	-6	-4	-15	-2	-9
Cc1cc2c(NC(=O)Nc3ccc(C(F)(F)F)cc3)cccc2nn1	8	-6	i	17	-3	-9	-3	nt
NCC(=O)N1CCC(C(=O)N[C@@H](Cc2c[nH]c3ccccc23)C(=O)O)CC1	1	3	i	4	4	2	4	-3
Cc1nc2ccc3nc(NC(=O)c4ccco4)sc3c2s1	4	-1	i	nt	-281	2	nt	-22
CN1CCN(C2=C(Cl)C(=O)N(c3ccc(Cl)cc3)C2=O)CC1	-2	1	i	16	nt	-13	-1	-17
COc1ccc(S(=O)(=O)Nc2ccc3c(c2)C(=O)N([C@H](C)CO)C[C@H](C)[C@@H](CN(C)S(=O)(=O)c2cn(C)cn2)OCCCC[C@H](C)O3)cc1	1	6	nt	nt	3	nt	nt	10&-8
Cc1ccc(NC(=O)C(C)c2ccc(-c3ccccc3)c(F)c2)cc1 (centres undefined)	-11	-26	i	-6	nt	42	-4	-22
O=S(=O)(c1ccc(Oc2ccc3oc4ccccc4c3c2)nc1)N1CCCC1	-2	-4	i	-17	-24	-1	-5	-13
Cc1cc(C(=O)COC(=O)Cc2n[nH]c(=O)c3ccccc23)c(C)n1-c1ccc2c(c1)OCCO2	-2	-12	i	-10	16	9	2	nt
CN1CCc2c(sc(NC(=O)Cc3ccccc3)c2C#N)C1	-9	12	i	2	-30	-13	-5	-20
COc1ccc(/C=C2\SC(=S)N(C(C(=O)O)c3ccccc3)C2=O)c(OC)c1 (centres undefined)	0	6	i	-2	-9	22	-12	-3
COc1ccc(C(C)NC(=O)Cc2cccs2)cc1 (centres undefined)	1	3	i	-2	-16	4	2	-19
Cc1ccccc1/C(N)=N/O	2	5	i	0	-7	1	8	nt

Structural class: the compounds so far containing a thiophene ring, fused or not (2)
SMILES	MT1-MMP act inh	MT1-MMP act inh RFP	Rce1 inh	PABP FP inh	Env fusion inh	CSC inhib	eIF4H inh	UUG fidelity	others
CN1CCc2c(sc(NC(=O)Cc3ccccc3)c2C#N)C1	-9	12	i	2	-30	-13	-5	-20
COc1ccc(C(C)NC(=O)Cc2cccs2)cc1 (centres undefined)	1	3	i	-2	-16	4	2	-19

More entries follow.
SMILES	MT1-MMP act inh	MT1-MMP act inh RFP	Rce1 inh	PABP FP inh	Env fusion inh	CSC inhib	eIF4H inh	UUG fidelity	others
Cc1cccc(C(=O)Nc2ccccc2C(=O)NCc2ccco2)c1	0	-3	i	1	8	1	3	-14
Cc1ccc(C)c(NC(=O)CSc2nnc(NC(=O)C3CC3)s2)c1	-1	-1	i	-12	nt	7	10	-5
Cc1cc2nc(N)sc2cc1C	6	6	i	6	nt	10	-2	-36
Cc1ccc(Nc2ccc(C(=O)N3CCCC3)cn2)c(C)c1	-5	-3	i	2	nt	11	0	9
COc1ccc(CN(C(=O)CN2C(=O)c3ccccc3S2(=O)=O)C(C(=O)NCC2CCCO2)c2ccncc2)cc1 (centres undefined)	0	0	i	3	nt	3	-6	nt
CCOc1ccc(C2C(C#N)=C(N)SC(N)=C2C#N)cc1OC	nt	nt	i	?	nt	1	?	nt
COc1ccc(CC(=O)NCc2ccc(-n3cccc3)cc2)cc1OC	-5	-16	i	-7	-275	51	-8	-4
Cc1ccc(S(=O)(=O)N2CCN(C)CC2)c(C)c1	1	12	i	0	-134	-11	0	-19
COc1ccc(-n2ccnc2SCC(=O)c2c(N)n(C3CC3)c(=O)[nH]c2=O)cc1	1	2	nt	nt	-76	nt	nt	-4
CCc1ccc(OCCOCC(O)CN2CCN(Cc3ccc(Cl)cc3)CC2)cc1 (centres undefined)	-6	-11	i	-2	20	32	-8	1
Cc1cccc(C)c1NC(=O)N1CCC(c2nc3ccccc3o2)CC1	-7	0	i	16	19	-13	8	-12
CCCCN(CCCNC(=O)C1CCCN(S(=O)(=O)CCC)C1)Cc1ccccc1 (centres undefined)	1	2	i	-4	12	nt	7	-12
C(=N\NC1=Nc2cccc3cccc1c23)/c1cccnc1	-15	-1	i	0	-36	-3	?	nt
COc1ccc(Oc2nc(C)cc(C)c2S(=O)(=O)c2ccc(C)cc2)cc1	-2	-5	i	-5	nt	32	-3	nt
CCCC(=O)n1nc(-c2cccnc2)nc1NCc1ccccc1	2	-1	nt	-8	-14	nt	-1	-13
O=C(COc1ccc2ccc(=O)oc2c1)Nc1ccc(N2CCOCC2)cc1	4	6	i	16	nt	-15	-2	nt
Cc1ccc(NC(=O)C[n+]2ccccc2)cc1[N+](=O)[O-]	-1	0	i	0	-7	-3	8	-18
COc1ccc(-n2nnnc2SCC(=O)Nc2ccccc2)cc1	7	2	i	-4	-31	nt	-2	-5
COc1ccc(N2CCN(C(=O)CSc3nc4[nH]ncc4c(=O)n3-c3ccc(Br)cc3)CC2)cc1	0	-6	i	3	21	0	3	nt
CNC(=S)SCCOc1ccccc1C	-1	1	i	8	-5	nt	19	-21
CCn1c(SC)nc(O)c(C(c2ccc(OC)c(O)c2)c2c(O)nc(SC)n(CC)c2=O)c1=O	nt	nt	i	8	nt	-6	10	nt
FC(F)(F)c1ccc(CN2C[C@@H]3C(c4ccc(Cl)nc4)C4(c5ccccc5)CC3(C4)[C@H]2c2ccccc2)cc1 (some centres undefined)	1	-9	i	-17	-15	16	-7	-15
c1ccc(-c2nccc3ccccc23)cc1	-2	2	i	nt	-13	-11	nt	nt
CC(C)(C)NC(=O)CN(Cc1cccs1)C(=O)CCC(=O)Nc1nccs1	0	2	i	4	nt	-1	-3	-11
O=C1c2cccc3cccc(c23)C(=O)N1c1cccc(O)c1	1	0	i	1	10	-4	0	-8
O=C(CN1CCN(C(c2ccccc2)c2ccccc2)CC1)N1N=CCC1c1ccccc1 (centres undefined)	-2	-6	i	-4	-10	-13	-4	nt
COc1cc(OC)c2c(-c3ccccc3)cc(=O)oc2c1C(CC(=O)N1CCOCC1)c1ccc2c(c1)OCO2 (centres undefined)	-1	0	i	6	18	-11	-7	-25
O=C(CCSc1nc(-c2ccco2)cc(C(F)(F)F)n1)N1CCN(c2ccccn2)CC1	-4	0	i	-6	nt	10	-14	nt
CCc1nnc2n1N=C(c1cccc([N+](=O)[O-])c1)CS2	-1	3	i	3	-8	-10	1	-19
Clc1ccc(C(CCN2CCCC2)Cc2ccccc2)cc1 (centres undefined)	1	0	i	4	17	3	7	nt
CC(NC(=O)NC(N)=O)(C(F)(F)F)C(F)(F)F	2	-3	i	3	nt	-7	-2	-21
O=C(NCCCN1CCCC1=O)c1c(O)nc2ccccn2c1=O	-2	3	i	3	-3	-2	-6	25
CNC(=O)COC(=O)/C=C/c1nc2ccccc2s1	-2	3	i	-4	12	nt	6	nt
CCOc1ccc(/C(O)=C2/C(=O)C(=O)N(CCN(CC)CC)C2c2cccs2)cc1 (centres undefined)	-1	-1	i	0	4	-11	6	-9
Cc1scc(C(=O)NNC(=S)NCC2CCCO2)c1-c1ccccc1 (centres undefined)	0	-1	i	-2	10	9	5	nt
CSc1ncccc1C(=O)NC1CCCCCCC1	3	-2	i	-3	4	-2	-4	-3
CCc1nc(N2CCN(C(=S)NCCCOC)CC2)c2c3c(sc2n1)CCCC3	1	-11	i	9	8	nt	-7	-29
CC(=O)Nc1sc2c(c1C(N)=O)CCCC2	-5	-6	nt	6	-30	-15	-6	nt
CCOC(=O)C1(C)CCN1C(=O)c1ccoc1 (centres undefined)	2	3	nt	nt	4	nt	nt	-8
Cc1nnc(SCCn2c(N3CCC(Cc4ccccc4)CC3)nc3c2c(=O)[nH]c(=O)n3C)s1	nt	nt	i	-2	nt	-3	-13	nt
O=C(Nc1ccccc1C(=O)N1CCCC1)c1ccccc1	-1	4	i	5	nt	-1	11	-14
CSCCC(NC(=O)C1CCC(C)CC1)C(=O)NCc1ccco1 (centres undefined)	0	0	i	9	-65	1	4	-16
CN(C)C(=O)CNC(=O)C1CCCCC1	2	4	i	-15	nt	nt	-4	-3
Cc1ccc(NC(=S)Nc2cccc3ccccc23)cc1	-4	7	i	19	-97	3	0	-57
Cc1cc(=O)oc2cc(OCC(=O)NCCc3nc4ccccc4[nH]3)ccc12	-1	0	i	-2	-37	-5	0	-17
O=C(Nc1ccc(OC(F)(F)F)cc1)c1ccc(-n2cncn2)nc1	2	-11	i	-1	-12	8	9	nt
CC(C)(C)N(C(=O)Cn1nnc(-c2ccc(F)cc2)n1)C(C(=O)NC1CCCC1)c1ccncc1 (centres undefined)	0	2	i	-3	20	-5	-5	nt
O=C1CCCN1CCCNc1ncccc1[N+](=O)[O-]	2	2	nt	4	8	-2	-1	2
Cc1ccc(C)c(OCC(=O)Nc2cccc(C(=O)O)c2)c1C	-3	0	i	-7	-37	-1	-3	-22
O=C(NCC(O)c1ccc2ccccc2c1)c1c(F)cccc1F (centres undefined)	-2	-5	i	12	-3	-5	-5	-9
